Compound activity: PubChem, Broad Institute
Ecoli rRNA inh: inhibitors of bacterial rRNA selective over humanized ribosomes | E. coli WT GFP vs humanized-ribosome RFP mutants, fluorescence, 24 h; hits give low values; DMSO median 0, no signal -100 | GFP signal change (wild-type ribosome), % (test concentration not listed) | 350,000 tested, 1.6% active | AID 720706;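 active = significant combined selectivity score with lowered wild-type GFP, culture density cut under 30%, mutant RFP and density less affected; inactive = any of these conditions unmet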; note: one replicate is shown; some compounds called inactive have numbers as strong as hits
FGF22 binding: shifts melting point of recombinant human FGF22. calls only at 9.99 µM. Q9HCT0. recombinant FGF22 thermal shift, SYPRO orange fluorescence; percent of sucrose octasulfate shift, DMSO zero. 340,000 tested, 1.5% active;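 active = melting point raised past a set limit in the mean and every replicate; three in four hits are not shown here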
Target sequence (Q9HCT0 whole entry, looked up): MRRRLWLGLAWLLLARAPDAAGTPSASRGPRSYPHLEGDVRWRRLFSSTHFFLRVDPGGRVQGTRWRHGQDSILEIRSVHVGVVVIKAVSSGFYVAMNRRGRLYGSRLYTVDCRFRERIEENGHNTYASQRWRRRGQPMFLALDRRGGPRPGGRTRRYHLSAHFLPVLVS
Ecoli rRNA inh OD600: also measured in Ecoli rRNA inh; calls as there; OD600 change, %; measured here: OD600 growth;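 optical density of the mix in the first replicate; 0 = DMSO median and -100 = no signal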
Ecoli rRNA inh RFP: also measured in Ecoli rRNA inh; calls as there; RFP signal change, %; measured here: RFP humanized mutant strains;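 first replicate; 0 = DMSO median and -100 = no signal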
* hit, by the source's call; i = inactive; · = not tested or not shown; + = active, no number; & = joins results of further samples. Not all compounds are listed; the hit share may differ from the screen's.

SMILES	Ecoli rRNA inh	Ecoli rRNA inh OD600	Ecoli rRNA inh RFP	FGF22 binding
CC(C)NC(=O)Nc1ccc2c(c1)C(=O)N([C@H](C)CO)C[C@@H](C)[C@H](CN(C)S(=O)(=O)c1ccccc1)OCCCC[C@@H](C)O2	-1.6	8.1	-0.3	i
CN(C)CC(=O)N[C@H]1CC[C@@H](CC(=O)NCc2ccc(Cl)cc2)O[C@H]1CO	5.2	6.7	-0.5	i
C[C@@H]1CCCCO[C@@H](CN(C)C(=O)c2ccccc2)[C@@H](C)CN([C@@H](C)CO)C(=O)c2cc(NC(=O)CCC(F)(F)F)ccc2O1	6.0	5.4	-2.6	i
COc1ccc(CN(C)C[C@H]2Oc3ccc(NS(=O)(=O)c4cccs4)cc3C(=O)N([C@@H](C)CO)C[C@H]2C)cc1	2.8	7.3	-0.9	i
CO[C@@H](CN(C)C(=O)C1CCOCC1)[C@H](C)CN([C@H](C)CO)S(=O)(=O)c1ccccc1	1.7	-3.4	-0.2	i
C[C@@H]1CN([C@H](C)CO)C(=O)c2cc(NC(=O)Cc3cn(C)c4ccccc34)ccc2O[C@@H]1CN(C)S(=O)(=O)c1ccc(F)cc1	-2.0	-2.8	-1.0	i
C[C@H]1CN([C@@H](C)CO)C(=O)c2cc(NS(=O)(=O)c3ccccc3)ccc2O[C@@H]1CN(C)Cc1ccccc1	-1.7	-3.9	-0.7	i
C/C=C/c1cnc2c(c1)C(=O)N([C@H](C)CO)C[C@H](C)[C@@H](CN(C)Cc1ccccc1)O2	-1.4	9.6	-3.0	i
O=C(C[C@H]1C=C[C@H](NC(=O)Cc2cccnc2)[C@H](CO)O1)Nc1ccccc1	-0.4	1.2	0.0	i
C[C@@H]1CN([C@H](C)CO)C(=O)Cc2cc(NS(=O)(=O)c3ccc(F)cc3)ccc2O[C@H]1CN(C)S(C)(=O)=O	-0.6	2.0	-1.4	i
CCCC#Cc1cnc2c(c1)C(=O)N([C@@H](C)CO)C[C@@H](C)[C@H](CN(C)C(=O)CN1CCOCC1)O2	2.1	13.0	-3.9	i
C[C@@H]1CCCCO[C@@H](CN(C)S(=O)(=O)c2ccc(Cl)cc2)[C@H](C)CN([C@H](C)CO)C(=O)c2cc(NC(=O)Nc3ccc(C(F)(F)F)cc3)ccc2O1	-3.8	7.8	-5.4	i
C[C@@H]1CN([C@H](C)CO)C(=O)Cc2cc(NC(=O)C3CCCCC3)ccc2O[C@H]1CN(C)C(=O)Nc1cccc2ccccc12	-2.6	-3.1	0.9	i
CO[C@@H]1CN(C)C(=O)c2cc(NC(=O)C3CCOCC3)ccc2OC[C@@H](C)NC[C@@H]1C	-1.0	3.6	0.7	i
Cc1cccc(S(=O)(=O)N2CC[C@@H]3[C@H]2c2cc(C4=CCCCC4)ccc2N[C@@H]3CO)c1	-4.8	13.8	-2.5	i
O=C(C[C@@H]1CC[C@@H]2[C@H](COC[C@H](O)CN2C(=O)Nc2ccc(Cl)cc2)O1)NCC1CCCCC1	-36.0	-47.3	-13.0	i
CCS(=O)(=O)Nc1ccc2c(c1)C(=O)N(C)C[C@@H](OC)[C@H](C)CN(Cc1ccccn1)[C@@H](C)CO2	-1.8	-1.5	0.1	i
CC(C)NC(=O)N(C)C[C@H]1Oc2ccc(N(C)C)cc2C(=O)N([C@H](C)CO)C[C@H]1C	0.7	-2.5	0.0	i
COc1ccc(S(=O)(=O)Nc2ccc3c(c2)C(=O)N([C@H](C)CO)C[C@H](C)[C@H](CN(C)Cc2ccccc2)O3)cc1	3.5	8.0	1.5	i
COc1ccc(NC(=O)N(C)C[C@@H]2Oc3ccc(NS(=O)(=O)c4c(C)noc4C)cc3C(=O)N([C@@H](C)CO)C[C@@H]2C)cc1	0.6	-1.9	-0.7	i
COCC(=O)Nc1ccc2c(c1)[C@@H]1C[C@H](CC(=O)NCC3CC3)O[C@H](CO)[C@@H]1O2	0.2	1.7	-3.5	i
O=C(C[C@@H]1CC[C@@H](NC(=O)Nc2ccc(C(F)(F)F)cc2)[C@H](CO)O1)NCc1ccccn1	0.2	9.2	0.9	i
COc1ccc(S(=O)(=O)N[C@H]2CC[C@@H](CC(=O)NCc3ccccc3F)O[C@@H]2CO)cc1	4.8	-5.9	6.7	i
CCS(=O)(=O)Nc1ccc2c(c1)C(=O)N(C)C[C@H](OC)[C@H](C)CN(C(=O)CN(C)C)[C@@H](C)CO2	-1.4	3.5	-1.6	i
O=C(c1cccnc1)N1CCCCN2[C@@H](CO)[C@H](c3ccc(C#Cc4ccccn4)cc3)[C@@H]2C1	8.3	1.8	0.8	i
COCC#Cc1cnc2c(c1)C(=O)N([C@H](C)CO)C[C@H](C)[C@H](CN(C)C(=O)c1cnccn1)O2	3.1	16.2	-0.2	+
COc1ccc(NC(=O)Nc2ccc3c(c2)[C@H]2C[C@@H](CC(=O)NCCc4ccccc4)O[C@@H](CO)[C@H]2O3)cc1	-4.6	-2.7	1.7	i
C[C@H](CO)N1C[C@H](C)[C@H](CN(C)Cc2ccncc2)OCCCC[C@H](C)Oc2ccc(NS(=O)(=O)c3cccs3)cc2C1=O	0.0	-1.7	0.4	i
CC=Cc1ccc2n(c1=O)C[C@@H]1[C@@H](CO)[C@H](C(=O)NCCOC)[C@H]2N1Cc1nccs1 (mixture of isomers)	0.8	2.2	-2.3	i
COc1ccc2c3c([nH]c2c1)[C@@H](CO)N(C(=O)Nc1ccc(F)cc1)CC31CN(S(=O)(=O)c2ccccc2)C1	1.4	-20.3	7.3	i

3 compounds from above, arranged by their value in Ecoli rRNA inh OD600, ascending.
SMILES	Ecoli rRNA inh	Ecoli rRNA inh OD600	Ecoli rRNA inh RFP	FGF22 binding
COc1ccc2c3c([nH]c2c1)[C@@H](CO)N(C(=O)Nc1ccc(F)cc1)CC31CN(S(=O)(=O)c2ccccc2)C1	1.4	-20.3	7.3	i
C[C@H](CO)N1C[C@H](C)[C@H](CN(C)Cc2ccncc2)OCCCC[C@H](C)Oc2ccc(NS(=O)(=O)c3cccs3)cc2C1=O	0.0	-1.7	0.4	i
CCS(=O)(=O)Nc1ccc2c(c1)C(=O)N(C)C[C@@H](OC)[C@H](C)CN(Cc1ccccn1)[C@@H](C)CO2	-1.8	-1.5	0.1	i

Only Ecoli rRNA inh OD600 and FGF22 binding (2 entries from above):
molecule	Ecoli rRNA inh OD600	FGF22 binding
CO[C@@H]1CN(C)C(=O)c2cc(NC(=O)C3CCOCC3)ccc2OC[C@@H](C)NC[C@@H]1C	3.6	i
Cc1cccc(S(=O)(=O)N2CC[C@@H]3[C@H]2c2cc(C4=CCCCC4)ccc2N[C@@H]3CO)c1	13.8	i

(listing goes on)
SMILES	Ecoli rRNA inh	Ecoli rRNA inh OD600	Ecoli rRNA inh RFP	FGF22 binding
C[C@@H]1CN([C@H](C)CO)C(=O)c2cc(NC(=O)c3ccccc3)ccc2O[C@@H](C)CCCCO[C@H]1CN(C)C(=O)Nc1ccccc1	-3.9	-4.9	6.0	i
C/C=C/c1ccc([C@@H]2[C@H]3CN(C(=O)Nc4ccc(F)cc4)CCCCN3[C@H]2CO)cc1	1.1	0.5	7.7	i
O=C(C1CCOCC1)N1C[C@@H]2[C@H](c3ccccc31)[C@@H](CO)N2C(=O)c1ccccc1	4.9	3.2	-2.3	i
CN1CCN(C(=O)C[C@H]2CC[C@@H]3[C@H](COC[C@H](O)CN3Cc3cccc(Cl)c3)O2)CC1	-2.4	0.0	-1.7	i
O=C(C[C@@H]1CC[C@@H]2[C@H](COC[C@@H](O)CN2Cc2ccc(Oc3ccccc3)cc2)O1)N1CCc2ccccc2C1	-1.0	-40.4	20.5	i
C[C@H](CO)N1C[C@H](C)[C@H](CN(C)C(=O)Nc2ccccc2)Oc2ccc(NC(=O)C3CCCCC3)cc2CC1=O	1.5	6.5	-3.1	i
CNC[C@@H]1Oc2ccc(NC(=O)NC(C)C)cc2CC(=O)N([C@H](C)CO)C[C@H]1C	3.7	3.8	-0.4	i
COc1ccc(NC(=O)N(C)C[C@H]2Oc3c(cccc3N(C)C)C(=O)N([C@@H](C)CO)C[C@@H]2C)cc1	-0.8	-2.3	-0.1	i
CO[C@@H](CN(C)C(=O)c1ccccc1F)[C@@H](C)CN([C@@H](C)CO)S(=O)(=O)c1ccc(Cl)cc1	5.5	4.6	-0.9	i
CN1CCN(C(=O)C[C@@H]2C[C@H]3c4cc(NS(C)(=O)=O)ccc4O[C@H]3[C@@H](CO)O2)CC1	2.8	11.6	-1.6	i
Cc1noc(C)c1NC(=O)Nc1ccc2c(c1)C(=O)N([C@H](C)CO)C[C@H](C)[C@H](CN(C)C(=O)NC1CCCCC1)O2	3.7	2.6	-0.3	i
O=C(C[C@@H]1C[C@H]2c3cc(NC(=O)C4CCC4)ccc3O[C@H]2[C@@H](CO)O1)NC1CCCC1	4.0	5.1	-2.4	i
O=C(C[C@H]1C[C@H]2c3cc(NS(=O)(=O)c4ccccc4)ccc3O[C@H]2[C@@H](CO)O1)NCC1CC1	-1.0	1.9	-2.3	i
COc1ccc(CN(C)C[C@H]2Oc3ccc(NS(=O)(=O)c4ccccc4)cc3C(=O)N([C@@H](C)CO)C[C@@H]2C)cc1	-4.2	2.2	-1.1	i
CN1C(=O)c2cc(NC(=O)Cc3cccs3)ccc2OC[C@H]2O[C@H](CC(=O)NCc3ccc(-c4ccccc4)cc3)CC[C@@H]21	-0.5	0.4	-0.5	i
O=C(NC[C@H]1[C@H](c2ccccc2)[C@H](CO)N1Cc1ccccn1)C1CC1	2.4	-0.8	1.2	i
CCCNC(=O)N[C@@H]1C=C[C@H](CC(=O)NCCc2ccccc2)O[C@H]1CO	1.0	0.1	-0.4	i
Cn1cnc(CCNC(=O)C[C@@H]2CC[C@@H]3[C@H](COC[C@H](O)CN3C(=O)Nc3ccc(C(F)(F)F)cc3)O2)c1	i	·	·	i
COc1ccc(NC(=O)N(C)C[C@H]2OCCCC[C@H](C)Oc3ccc(NS(=O)(=O)c4cn(C)cn4)cc3C(=O)N([C@@H](C)CO)C[C@@H]2C)cc1	-0.4	-2.4	-0.5	i
C[C@H](CO)N1C[C@H](C)[C@@H](CN(C)Cc2cncnc2)Oc2cc(-c3ccccc3F)ccc2S1(=O)=O	-10.4	-25.6	-2.5	i
C[C@@H]1CN([C@@H](C)CO)C(=O)c2cc(N(C)C)ccc2O[C@H]1CN(C)C(=O)Nc1ccc(F)cc1	-0.7	3.7	-0.2	i
COc1ccccc1-c1ccc([C@@H]2[C@@H](CO)N3CCCCN(C(=O)CN4CCOCC4)C[C@H]23)cc1	4.0	4.4	2.7	i
Cc1ccc(S(=O)(=O)N(C)C[C@H]2Oc3c(cccc3N(C)C)C(=O)N([C@H](C)CO)C[C@@H]2C)cc1	-8.0	-4.1	-1.1	i
CC(C)NC(=O)N(C)C[C@@H]1Oc2ccc(NC(=O)CCCN(C)C)cc2CC(=O)N([C@@H](C)CO)C[C@H]1C	6.2	3.2	-1.2	i
O=C(C[C@@H]1C=C[C@@H](NC(=O)C2CCC2)[C@@H](CO)O1)NCC1CC1	2.6	8.9	-2.0	i
CCC(=O)Nc1ccc2c(c1)C(=O)N(C)C[C@@H](OC)[C@@H](C)CN(CCc1ccccc1)[C@@H](C)CO2	2.2	4.4	-0.6	i
COc1ccccc1NC(=O)N[C@H]1CC[C@@H](CC(=O)N[C@@H](C)c2ccccc2)O[C@H]1CO	3.0	-3.0	1.2	i
Cc1ccc(S(=O)(=O)Nc2ccc3c(c2)CC(=O)N([C@H](C)CO)C[C@H](C)[C@H](CN(C)Cc2ccc(Oc4ccccc4)cc2)O3)cc1	0.8	2.0	1.0	i
C[C@@H]1CN([C@H](C)CO)C(=O)c2cc(NC(=O)Nc3ccccc3)ccc2O[C@@H](C)CCCCO[C@H]1CN(C)S(C)(=O)=O	11.5&1.1	-7.2&-0.5	5.7&0.8	i
Cc1noc(C)c1NC(=O)Nc1ccc2c(c1)C(=O)N([C@H](C)CO)C[C@H](C)[C@H](CN(C)C(=O)Nc1ccc3c(c1)OCO3)OCCCC[C@@H](C)O2	4.7	14.4	-2.7	i

Records listed above shown as hits in FGF22 binding:
SMILES	Ecoli rRNA inh	Ecoli rRNA inh OD600	Ecoli rRNA inh RFP	FGF22 binding
COCC#Cc1cnc2c(c1)C(=O)N([C@H](C)CO)C[C@H](C)[C@H](CN(C)C(=O)c1cnccn1)O2	3.1	16.2	-0.2	+

The listing continues.
SMILES	Ecoli rRNA inh	Ecoli rRNA inh OD600	Ecoli rRNA inh RFP	FGF22 binding
COCC(=O)N1CCCCN2[C@@H](CO)[C@H](c3ccc(-c4ccc(F)cc4)cc3)[C@@H]2C1	-0.7	-0.9	1.9	i
COC(=O)C1=C(C)N(Cc2cccc(C(F)(F)F)c2)C(=NCc2ccc3c(c2)OCO3)NC1c1ccc(F)cc1 (stereo not drawn)	-40.5	-74.9	-4.2	i
COc1ccc(S(=O)(=O)Nc2ccc3c(c2)CC(=O)N([C@@H](C)CO)C[C@@H](C)[C@H](CN(C)C(=O)Nc2ccc(F)cc2)O3)cc1	2.5	0.2	0.0	i
Cc1cccc(S(=O)(=O)N2[C@@H]3c4cccc(=O)n4C[C@H]2[C@H](CO)[C@H]3C(=O)N(C)C)c1	1.9	7.3	-1.3	i
N#C[C@H]1[C@@H](c2ccc(C#Cc3cccc(F)c3)cc2)[C@@H](CO)N1C(=O)C1CCOCC1	-0.5	-8.9	0.8	i
O=S(=O)(N[C@H]1CC[C@H](CCNS(=O)(=O)c2ccccc2Cl)O[C@H]1CO)c1ccccc1	-6.1	0.5	0.7	i
Cc1ccc(-c2cnc3c(c2)C(=O)N([C@H](C)CO)C[C@H](C)[C@H](CN(C)C(=O)Cc2ccncc2)O3)cc1	-3.5	0.6	-2.9	i
